# 2A StopGo = FMDV 2A StopGo reporter, luciferase signal; human cells with a luciferase reporter of 2A StopGo recoding; control for the full effect not named in the record; Potency, µM (titrated, usually from 57.9 µM), for inactives: top-dose signal change, negative = less light; 1.2% of 410,000 active; AID 1159524; active = well fitted falling curve with a large enough effect; inconclusive = small, poorly fitted or top-dose-only effect; inactive = no such curve, though single readings can be large or run the other way; tested in HEK293T cells; further: on the % scale 0 is the no-effect control and ±100 the full control effect; nearly all actives have a fitted effect of over 45% in size; luciferase light after 4 h
# SARS PLP yeast = inhibitors of SARS-CoV papain-like protease in yeast. S. cerevisiae expressing SARS-CoV PLpro, growth rescue; control for the full effect not named in the record. Potency, µM (titrated, usually from 32.9 µM), for inactives: at the top dose activity, positive = growth rescue. 0.19% of 330,000 active. AID 485353; active means well fitted rising curve with a large enough effect; inconclusive means small, poorly fitted or top-dose-only effect; inactive means no such curve, though single readings can be large or run the other way; further: 0% is about no effect; nearly all actives have a fitted effect of over 55% in size; growth read by luminescence after 48 h
# Lassa entry inh = inhibitors of Lassa virus binding or cell entry. Lassa virus pseudotype entry inhibition, cell reporter; control for the full effect not named in the record. Potency, µM (series often up to 37.9 µM), without a hit: at the top dose activity change, negative = inhibition, hits mostly inhibitors. 1.2% of 300,000 active. AID 540256; active means well fitted inhibition curve with a large enough effect; inconclusive means small, poorly fitted or top-dose-only effect, or effect the other way; inactive means flat fitted curve, though single readings scatter; tested in HEK293 cells; further: on the % scale 0 is the no-effect control and ±100 the full control effect; nearly all actives have a fitted effect of over 50% in size; luciferase read-out
# NS1 inh = blocks influenza NS1 protein function; 0.4% of 270,000 active; S. cerevisiae slowed by influenza A NS1, growth recovery by OD600; Potency, µM (top dose mostly 46.1 µM), for inactives: top-dose activity, positive = more growth; active means well fitted rising curve with a large enough effect; inconclusive means small, poorly fitted or top-dose-only effect; inactive means no such curve, though single readings can be large or run the other way; further: nearly all actives have a fitted effect of over 50% in size
#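 In this qHTS, NS1 from influenza A is expressed in budding yeast, where it slows growth. Cells are switched from glucose to 2% galactose medium (pH 6.0, -URA), treated with compound, and growth recovery is read at OD600.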
# Marburg entry inh = Marburg virus entry inhibition; Marburg virus pseudotyped entry inhibition, cell reporter; control for the full effect not named in the record; about a third of the inactives were read at about 46 µM; Potency, µM (doses to about 37.8 µM), for the others: top-dose activity change, negative = inhibition, hits mostly inhibitors; 1.8% of 300,000 active; active = well fitted inhibition curve with a large enough effect; inconclusive = small, poorly fitted or top-dose-only effect, or effect the other way; inactive = flat fitted curve, though single readings scatter; tested in HEK293 cells; about a fifth of its hits are not listed in these tables; further: on the % scale 0 is the no-effect control and ±100 the full control effect; luciferase read-out
# Cruzain inh Det = inhibitors of Trypanosoma cruzi cruzain with detergent. P25779. AID 1478. purified cruzain, Z-FR-AMC fluorescence, 0.01% Triton. Potency, µM, for inactives: max response, negative = inhibition, actives largely listed as inhibitors. 0.43% of 200,000 active;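 further: plate controls were neutral wells for no effect and buffer without enzyme for full effect; nearly all actives have a fitted effect of over 40% in size; top concentration of the series not given in the record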
# Target sequence (P25779 123-467 limits assumed): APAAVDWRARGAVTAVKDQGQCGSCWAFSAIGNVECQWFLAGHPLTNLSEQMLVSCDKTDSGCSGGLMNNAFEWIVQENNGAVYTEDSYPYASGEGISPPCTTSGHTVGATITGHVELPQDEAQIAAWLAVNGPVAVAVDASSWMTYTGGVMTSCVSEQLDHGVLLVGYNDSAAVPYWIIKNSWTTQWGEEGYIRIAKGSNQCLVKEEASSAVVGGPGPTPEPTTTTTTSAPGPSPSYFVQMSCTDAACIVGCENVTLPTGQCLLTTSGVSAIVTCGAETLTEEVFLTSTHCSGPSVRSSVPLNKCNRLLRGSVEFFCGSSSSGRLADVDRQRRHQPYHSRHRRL
#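 Compounds were screened in titration against cruzain (1.5 nM) with 0.01% Triton X-100 to counter colloidal aggregation. Activity was the AMC fluorescence increase over 60 s after adding 2 uM Z-FR-AMC at pH 5.5.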
# RE007 growth inh = less growth of the S. pombe RE007 Vpr strain; S. pombe RE007 Vpr strain, BacTiter-Glo ATP luminescence, 24 h; control for the full effect not named in the record; Potency, µM (doses to about 92.2 µM), for the others: top-dose activity change, negative = less growth; 0.21% of 360,000 active; AID 651644; active = well fitted falling curve with a large enough effect; inconclusive = small, poorly fitted or top-dose-only effect; inactive = no such curve, though single readings can be large or run the other way;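 further: on the % scale 0 is the no-effect control and ±100 the full control effect; nearly all actives have a fitted effect of over 50% in size; the assay follows cell death caused by Vpr and the record does not say whether a fall means rescue or toxicity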
#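 Fission yeast strain RE007, carrying one chromosomally integrated HIV-1 vpr copy, was seeded at OD 0.01 in PMG+AL medium with 23 nL pinned compound. After 24 h at 30 °C and 99% humidity, viability was read by BacTiter-Glo luminescence.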
# Cruzain inh noDet = blocks cruzain activity in detergent-free assay | P25779 | purified cruzain, Z-FR-AMC fluorescence, no detergent | Potency, µM, for the others: max response, negative = inhibition, usual class: inhibitors | 2.3% of 200,000 active | AID 1476;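 further: plate controls were enzyme without inhibitor for no effect and buffer without enzyme for full effect; nearly all actives have a fitted effect of over 40% in size; top concentration of the series not given in the record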
#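 Detergent-free condition (0.00005% Triton X-100) in acetate buffer pH 5.5 with DTT. 1.5 nM enzyme and compound were pre-mixed 15 min, then 2 uM Z-FR-AMC substrate added; reaction progress from fluorescence change between first and third reads (60 s).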
# * hit, by the source's call; ? = inconclusive; nt = no result given; & = joins results of further samples; [ ] = remark or other dose. Unless noted, the call rests on the fitted dose curve; in most records, active means well fitted curve in the direction sought with a large enough effect; inconclusive means small, poorly fitted or top-dose-only effect, or another doubt; inactive means no such curve, though single readings can be large; an effect the other way counts as inactive or inconclusive. Potency means the concentration at half of the fitted maximal effect.
SMILES,2A StopGo,SARS PLP yeast,Lassa entry inh,NS1 inh,Marburg entry inh,Cruzain inh Det,RE007 growth inh,Cruzain inh noDet
CC(C)C(=O)NC(=S)Nc1ccccc1C(F)(F)F,-10%,23%,7%,11%,-17%,-1.3%,-3%,3%
COc1cc(OC)cc(C(=O)Nc2cccc3c2CCCC3)c1,-2%,4%,14%[46.1 µM],-16%,?,nt,1%,nt
CCCCCOc1ccc(C(=O)C(c2ccccc2)N2CCOCC2)cc1 (centres undefined),?,-21%,?,-9%,?,-11%,8%,?
COc1cc(NC(=O)Cn2c(=O)n(CC3CCCO3)c(=O)c3cc(OC)c(OC)cc32)cc(OC)c1 (centres undefined),-17%&-10%,5%,23%[46.1 µM],15%,-4%&-4%[46.1 µM],-3.1%,-9%,?
O=S(=O)(Nc1cccc(-c2cn3cccnc3n2)c1)c1ccc(Cl)cc1,10%,-3%,0%,-2%,0%,-5.1%,8%,-17%
O=C(C1CCN(S(=O)(=O)c2ccc(Br)s2)CC1)N1CCN(c2ccc(F)cc2)CC1,?,nt,?,nt,?,-1.4%,nt,12%
Cc1c(NS(=O)(=O)c2ccc(Cl)c(C(=O)OC(C)C(=O)NCc3ccco3)c2)c(=O)n(-c2ccccc2)n1C (centres undefined),10%,0%,-12%,nt,2%[46.1 µM],nt,2%,nt
CN(C)CCCN1c2ccc(O)cc2Sc2ccc(Cl)cc21,-23%,nt,nt,-8%,nt,1.8%,9%,-4%
CC(=O)C1=C(O)C(=O)N(c2nnn(C)n2)C1c1cccs1 (centres undefined),15%,0%,nt,-4%,nt,-6.7%,10%,13%
CC(OC(=O)/C=C/c1ccc2ccccc2n1)C(=O)NCc1ccccc1 (centres undefined),24%,4%,-23%,nt,-15%,nt,1%,nt
COC(=O)Cn1c(=O)n(CCc2ccccc2)c(=O)c2c3c(sc21)CCCC3,?,-13%,-12%,13%,-14%,1.3%,-10%,12%
O=C(NC1CCCC1)c1ccc(COCC(F)(F)C(F)F)o1,15%,nt,115%[14.3 µM],-13%,1%,4.2%,-2%,-5%
CC1CCC(NC(=O)C2CCN(C(=O)NC3CCCCC3)CC2)CC1 (centres undefined),nt,4%,nt,-5%,1%,3.3%,nt,1%
C[C@H](NC(N)=O)C(=O)OCC(=O)NCc1cccs1,-4%,2%,-3%,nt,6%,nt,-3%,nt
O=S(=O)(c1cnc[nH]1)N1CCc2ccccc21,-14%,?,14%,7%,-6%,2.2%,-1%,0%
CCCCOC(=S)NC(=O)c1sc2ccccc2c1Cl,6%,-18%,nt,-37%,-3%,-4.4%,-6%,0%
Cc1cc(C)n2c(SCC(=O)Nc3c(C)n(C)n(-c4ccccc4)c3=O)nnc2n1,-6%,0%,4%,5%,8%,-0.6%,-13%,2%
COc1ccc(S(=O)(=O)N(CCc2ccccc2)CC(=O)Nc2cc(Cl)ccc2C)cc1,-9%,nt,?,nt,nt,-3.9%,nt,-4%
CCOCCOC(=O)C1=C(C)N(C)C(=O)NC1c1ccccc1Cl (centres undefined),-28%,-3%,6%,-5%,-11%,0.3%,4%,7%
CC1CCCC(N2C(=O)NC(NC(=O)c3ccco3)(C(F)(F)F)C2=O)C1C (centres undefined),-17%,-11%,-4%,-36%,-5%,-7.8%,-1%,14%
CN(CC(=O)Nc1ccc(F)cc1)C(=O)COC(=O)CN1C(=O)NC2(CCCC2)C1=O,0%,0%,?,-1%,3%,nt,27%,nt
Cc1sc2ncnc(N3CCC(C(=O)NCC(=O)Nc4ccc(F)c(F)c4)CC3)c2c1C,?,-5%,?,2%,?,nt,6%,nt
CCCCn1c(N)c(N(CCC(C)C)C(=O)C2=COCCO2)c(=O)[nH]c1=O,-19%,-1%,9%,-9%,17%,nt,-3%,nt
Cc1cccnc1NC(=O)NC(=O)c1ccc(C(C)(C)C)s1,0%,-5%,nt,-8%,nt,nt,-16%,nt
COc1ccc(-c2noc(C3CCCN(S(=O)(=O)c4cccc(Cl)c4)C3)n2)cc1OC (centres undefined),-16%,4%,5%,-6%,?,0.5%,9%,?
Cc1cc(C)nc(NS(=O)(=O)c2ccc(NC(=O)CN3C(=O)C4CC=CCC4C3=O)cc2)n1 (centres undefined),24%,2%,-2%,nt,-3%[46.1 µM],nt,3%,nt
COC(=O)C1=C(C)N(c2cccc(Cl)c2)C(=O)C1,-20%,1%,-13%,5%,-12%,-3.7%,4%,3%
COc1ccc(N(C)C(=O)Cc2c(C(=O)O)[nH]c3ccccc23)cc1,-17%,-2%,-2%,nt,-8%[46.1 µM],nt,-10%,nt
Cc1ccc(S(=O)(=O)N(CC(=O)NCc2ccccn2)c2ccc(Cl)cc2)cc1,0%,-4%,?,-6%,4%,nt,9%,nt
CCOc1ccccc1CSc1nc2ccccc2[nH]1,-3%,-39%,-5%,-12%,-2%,-7.7%,-6%,5%
CCc1c(C)sc(NC(=O)c2cc(CC(C)C)on2)c1C#N,-19%,-1%,nt,-12%,nt,-6.6%,-19%,-2%
CCOCCCNC(=O)c1cnc2sc(N3CCCCC3)nn2c1=O,-16%,nt,-3%[46.1 µM],nt,nt,-7.2%,nt,-7%
CCn1ccnc1CNC(=O)c1ccc2oc(C(C)C)nc2c1,12%,1%,-1%[46.1 µM],11%,0%[46.1 µM],nt,1%,nt
CCCCOc1ccc(C(=O)N2CCCC2C(=O)O)cc1 (centres undefined),-29%,2%,3%,3%,14%,1.4%,4%,7%
COCc1cc(=O)n2[nH]c(-c3ccco3)cc2n1,43%[activator],0%,17%[46.1 µM],1%,?,nt,1%,nt
Cc1oc(-c2ccc(C(=O)Nc3cccc(C(F)(F)F)c3)cc2)nc1CSc1ccccc1,?,nt,-15%[46.1 µM],nt,nt,-3.5%,nt,?
COc1ccc(OC)c(NC(=O)NCc2ccc(F)cc2)c1,7%,-10%,0%,-16%,?,4.3%,-2%,4%
Cc1ccc(CNC(=O)CCc2c(C)[nH]c(=O)c(C#N)c2C)cc1,4%,-1%,1%,-32%,?,nt,11%,nt
COc1cc2c(C(=O)N3CCN(c4ccc(F)cc4)CC3)cn(CC(C)C)c(=O)c2cc1OC,36%[activator],nt,3%[46.1 µM],nt,-1%[46.1 µM],-4.4%,nt,?
Cc1ccc2c(c1)C1(SCCS1)C(=O)N2,-10%,-12%,11%,-6%,?,-0.6%,18%,1%
O=C(COC(=O)c1cc(-c2cccs2)nc2ccccc12)NCc1ccco1,-21%,-1%,11%,2%,-11%,25µM*,-19%,3%
Cc1nc2ccn(Cc3ccco3)c(=O)c2cc1C(=O)NCc1ccccc1,4%,nt,nt,nt,nt,-1.8%,nt,3%
O=C(COC(=O)c1ccco1)Nc1ccc(Br)cc1,63%[activator],-1%,2%,-48%,-3%,1.3%,-11%,-8%
COc1ccc(N2CCN(S(=O)(=O)c3c(C)[nH]c(C)c3C(=O)N3CCCC3)CC2)cc1,18%,2%,21%[46.1 µM],-18%,16%[46.1 µM],nt,-9%,nt
Cc1ccc(NC(=O)CS(=O)CC(=O)N(C(C)C(=O)NC2CCCCC2)C(C)(C)C)cc1 (centres undefined),-4%,0%,-8%,-4%,-16%[46.1 µM],nt,1%,nt
O=c1oc(-c2ccccc2)nc2c1cnn2-c1ccccc1,8%,4%,-9%,0%,2%,-3.6%,1%,-9%
Cn1c(N)c(C(=O)COC(=O)c2ccccc2C(F)(F)F)c(=O)n(C)c1=O,-13%,10%,4%,nt,-11%,nt,-5%,nt
Cc1ccc(NC(=O)Cn2ccn(Cc3ccc(Cl)cc3)c(=O)c2=O)cc1C,-11%,nt,16%[46.1 µM],nt,nt,1.7%,nt,3%
O=C(Nc1nccs1)c1cn(-c2ccccc2)nc1-c1ccncc1,-18%,0%,-14%,9%,?,nt,-16%,nt
CCOC(=O)C1=NN(C(=O)c2ccc(OC)cc2)C(O)(c2ccc(Cl)cc2)C1 (centres undefined),-21%,?,-12%,-11%,?,-7.8%,-5%,-6%
Cc1c(CC(=O)N2CCCCC2)c(=O)oc2c(C)c(O)ccc12,5%,nt,-6%[46.1 µM],nt,7%[46.1 µM],-22%,nt,5%
CCOc1ccc(CNC(=O)Nc2ccc3c(c2)N(C)C(=O)c2ccccc2S3)cc1,?,nt,-10%[46.1 µM],nt,-29%[46.1 µM],-0.4%,nt,-17%
Cc1cc(C)c(S(C)(=O)=O)c(N(C)N)n1,20%,0%,0%[46.1 µM],nt,-12%[46.1 µM],nt,-5%,nt
Cc1[nH]c2ccccc2c1C(=O)C(=O)N1CCC2(CC1)OCCO2,4%,4%,1%,nt,-2%[46.1 µM],nt,22%,nt
COc1ccc(C(=O)Nc2c(-c3cccs3)c(=O)c3ccccc3n2C)cc1,-10%,0%,-1%[46.1 µM],-2%,1%[46.1 µM],nt,0%,nt
N#CCCNC(=O)Cn1c(COc2ccc(Cl)cc2)nc2ccccc21,24%,7%,?,2%,?,0.8%,0%,6%
COc1ccc(C(=O)Nc2ccccc2C(=O)N/N=C/c2cccc3ccccc23)cc1,0.32µM*,-1%,?,3%,?,2.3%,-15%,?
O=C(/C=C/c1ccccc1Cl)N(Cc1ccc(Cl)cc1)C1CCS(=O)(=O)C1 (centres undefined),-24%,8%,?,?,?,-4.1%,12%,11%
COc1ccc(CC(=O)c2ccc(O)cc2O)cc1OC,12%,-1%,13%,-11%,12%,0.8%,6%,1%
COc1ccc2nc(COC(=O)c3cccs3)c(C(C)=O)[n+]([O-])c2c1,-5%,0%,nt,2%,nt,nt,-2%,nt

# The listing continues.
SMILES,2A StopGo,SARS PLP yeast,Lassa entry inh,NS1 inh,Marburg entry inh,Cruzain inh Det,RE007 growth inh,Cruzain inh noDet
Cc1cccc(NC(=O)c2cc3c(=O)n4ccccc4nc3s2)c1,0%,-1%,-13%[46.1 µM],-9%,-10%[46.1 µM],nt,-2%,nt
Cc1ccc(NC(=O)C[n+]2cc(-c3ccc(C)cc3)n3c2CCC3)cc1,3%,-1%,-4%,-9%,-3%[46.1 µM],nt,-9%,nt
Cn1c(=O)oc2cc(S(=O)(=O)N3CCN(c4ccc(F)cc4)CC3)ccc21,18%,0%,3%,3%,?,1.8%,2%,4%
CCCCCCSc1nnc2[nH]c(=O)cc(N)n12,-7%,9%,0%,-6%,5%,-1.2%,0%,?
Cc1ccc(/C=N/n2c(COc3ccccc3)n[nH]c2=S)s1,-9%,12%,6.5µM*,-16%,8%,-3.2%,-1%[3.69 µM],-10%
CCOc1ccccc1NC(=O)CSc1ncc2c(n1)-c1ccccc1N(CC)S2(=O)=O,0%,nt,-25%[46.1 µM],nt,nt,-1.8%,nt,?
